High-throughput results deposited in PubChem BioAssay by several laboratories.
BJeLR viability: MLPCN primary cell-based screen for lethality selective to Ras in HRASV12 cells | BJeLR (HRASV12) viability, CellTiter-Glo ATP luminescence, 48 h; reference of the scale not given here | inhibition, % (test concentration not listed) | 0.17% of 300,000 active;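 active means replicate mean above 50%; inconclusive means above 50% but judged a plate artefact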;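 further: 50 nL library stock added to about 25 µL; numbers are from one replicate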
ugtP null kill: growth inhibition of ugtP-null S. aureus, primary screen, RN4220 ugtP deletion, OD600 | 16 h; some inactives read as strong as hits | growth inhibition, % (concentration not given with the values) | 0.54% of 330,000 active | AID 1259309, 2017;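 active means z-score under -3 and OD600 up to 0.15 on both plates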;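 further: plate controls were untreated wells for no effect and antibiotic for full effect; wells of about 80 µL received 100 nL stock; the first replicate is given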
PrP 5UTR inh: inhibition of PrP 5' UTR reporter expression. cell-based PrP 5' UTR mRNA reporter, plate reader. inhibition, % (no concentration beside the values). 0.35% of 340,000 active. AID 488862, 2010;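 active means every replicate at 50% or more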;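 further: 0 = median of the neutral control wells; tested in H4 reporter cells; numbers are from one replicate; inactives centre near -14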
Mtb hypoxia inh: PubChem AID 1159583; M. tuberculosis hypoxia-regulated fluorescent reporter, fluorescence; fluorescence inhibition, % (no concentration beside the values); 0.1% of 300,000 active;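 active means 35 to 45% if threefold the growth effect, above 45% if 1.5-fold the growth effect; inactive means the rest, general growth blockers included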;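 further: wells of about 50 µL received 100 nL stock; 0% = vehicle wells and 100% = reference inhibitor wells; whole bacteria with a GFP reporter of the hypoxia response; strong numbers were not always called active; many hits fall short of the cut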
Sa RN4220 lethal: growth inhibition of S. aureus RN4220, primary screen, OD600; 16 h; inhibition, % (test concentration not listed); AID 1259311, 2017; 0.33% of 330,000 active;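 active means z-score of -3 or lower and OD600 up to 0.18 on both plates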;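 further: plate controls were untreated cells for no effect and reference antibiotic for full effect; stock transfer was 100 nL into about 80 µL; one replicate is shown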
Bead autofluor: compound fluorescence in toxin protease inhibitor counterscreen | AID 624483 | 3.1% of 360,000 active | compound autofluorescence counterscreen, microsphere flow cytometry; stronger effect = higher value | fluorescence intensity (no concentration beside the values);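 active means at least 3 SD above the mean of all compounds, about 16000 in these data; inconclusive means too few beads counted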;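 further: 100 nL of 1 mM stock went into each well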
Mtb hypoxia inh growth: recorded beside Mtb hypoxia inh, whose call it bears; growth inhibition, %; measured here: M. tuberculosis growth (absorbance);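 0% = vehicle and 100% = reference antibiotic; read after six days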
* marks the source's active call; other numbers are inactive results; ? = inconclusive; nt = no result given; & = joins results of further samples.

SMILES	BJeLR viability	ugtP null kill	PrP 5UTR inh	Mtb hypoxia inh	Mtb hypoxia inh growth	Sa RN4220 lethal	Bead autofluor
COc1ccccc1CNC(=O)CC12CC3CC(CC(Br)(C3)C1)C2	-2	-2	-3	-12	-2	3.9	3375
COCc1c(C(=O)N2CCN(c3ccc(C(F)(F)F)cn3)CC2)oc2ccccc12	0	-13	-8	nt	nt	-4.4	2836
CCCCNC(=O)Nc1ccc(Br)cn1	10	-6	-30	nt	nt	-9.2	3062
Cc1ccc(C)c(NC(=S)N=Nc2c(O)n(C)c3ccc(S(=O)(=O)N4CCOCC4)cc23)c1	3	2	22	-3	-2	0.8	2168
COCCN1C(=O)N(c2ccccc2)C(=O)C1CC(=O)Nc1cc(OC)cc(OC)c1 (configuration not stated)	-6	10	-3	5	2	4.4	3076
Cc1nn(Cc2ccccc2)c(C)c1C(=O)NCc1ccccc1	-3	3	-5	11	10	1.9	4922
CC(=O)c1ccc(S(=O)(=O)N2CCN(C(=O)c3ccc(N)c([N+](=O)[O-])c3)CC2)cc1	nt	8	-13	7	5	5.6	3369
C=CCn1c(CCc2ccc(OC(C)C)cc2)n[nH]c1=S	3	3	-19	12	1	2.5	2603
Nc1nc(-c2ccccc2)nn1C(=O)c1ccco1	-5	1	-8	0	3	5.6	4067
COc1ccc(Cl)cc1NC(=O)CCN1CCN(C)CC1	-13	4	2	nt	nt	-1.8	2256
FC(F)(F)c1cccc(-c2ccc(/C=N/Nc3nncc(-c4ccccc4)n3)o2)c1	-2	nt	-17	nt	nt	nt	4651
COc1ccc(NC(=O)CCCNC(=O)Cn2cnc3sc4c(c3c2=O)CCCC4)cc1OC	12	7	-19	13	4	1.6	6620
Cc1cc(C)cc(NS(=O)(=O)Cc2ccccc2)c1	0	1	-12	15	2	3.9	3325
Cc1cccc(C(=O)NNC(=O)c2cccc(C)c2)c1	-3	0	-17	nt	nt	1.8	1825
CCC(=O)N1N=C(c2ccc(NS(=O)(=O)CC)cc2)CC1c1ccc(C)cc1 (configuration not stated)	-3	5	-8	-7	4	7.1	2767
CC1(C(=O)NCCCNc2ncc(C(F)(F)F)cc2Cl)C=CC2(CCCCC2)N1C(=O)c1ccccc1 (configuration not stated)	-5	-5	nt	20	9	2.1	nt
Cc1ccc(N(CC(=O)NC2CCCC2)C(=O)CNC(=O)c2cccs2)cc1F	-4	13	-15	-2	-9	5.3	4179
CCC(=O)N1CC23C=CC(CC2CC12CCCCC2)O3 (configuration not stated)	-3	12	-23	19	7	5.1	3033
O=C(CN(c1ccccc1)S(=O)(=O)c1ccccc1)NCCSc1ccccn1	-3	-2	-16	-5	6	1.6	3586
CCC(C)(C)NC(=O)c1ccc(S(=O)(=O)N(C)c2ccccc2OC)cc1	-1	-2	-28	17	12	4.5	nt
CC(C)c1nc2oc3c(=O)[nH]cnc3c2c2c1CCC2	-9	2	5	5	2	4.1	5917
Nc1c(C(=O)NCCN2CCOCC2)c2nc3ccccc3nc2n1CCc1ccccc1	-12	-15	-22	-1	1	1.8	9093
CCOC(=O)c1cnc2ccc(C)cc2c1NCCO	-3	-3	-11	4	7	3.9	3273
Cc1ccc([N+](=O)[O-])c(OCC(=O)OCC(=O)c2ccccc2)c1	-29	4	-34	1	0	3.7	2714
NCC1CCC(C(=O)Oc2ccc(CCC(=O)O)cc2)CC1 (configuration not stated)	-1	5	-3	-1	-1	11	5766
CN(C)S(=O)(=O)c1cccc(C(=O)N2CCC(C(=O)O)(c3ccccc3)CC2)c1	-7	0	-5	-1	3	-4.2	3123
O=C(c1cc(-c2ccncc2)nc2ccc(Cl)cc12)N1CCN(Cc2ccc3c(c2)OCO3)CC1	3	22	-18	10	6	1.5	3135
COc1ccc(C(=O)NC(C)c2ccncc2)cc1S(=O)(=O)N(C)Cc1ccccc1 (configuration not stated)	nt	-1	-12	-11	1	-1.5	4357
COc1ccc2nc(C)cc(Nc3ccc(C)cc3)c2c1	-4	2	-18	13	16	2.5	3745
COC(=O)C1=C(c2ccccc2OCc2ccccc2)CC2CCC1N2C(=O)NCCN1CCOCC1 (configuration not stated)	nt	7	nt	11	1	7.3	nt
O=c1cc(-c2ccccc2)[nH]n1-c1ccc([N+](=O)[O-])cc1	-5	14	-39	-1	1	40	9480
COc1ccc(CN=Cc2c(C(=O)O)[nH]c3ccccc23)cc1	3	4	-10	18	7	6.6	4328
CCOC(=O)C1=CNS(=O)(=O)NC1CCc1ccccc1 (configuration not stated)	nt	-6	-21	-7	-1	-2.1	2966
O=C(CCc1ccc(S(=O)(=O)N2CCOCC2)cc1)NN=Cc1ccc(F)cc1F	nt	6	nt	3	-2	6.5	nt
CCOc1ccc(S(=O)(=O)NCCC(=O)N2CC(C)OC(C)C2)cc1 (configuration not stated)	-4	1	1	4	14	2.4	5084
CCC1CCCCN1CCCNC(=O)c1ccc2nc(N3CCCCC3)sc2c1 (configuration not stated)	-2	-3	-39	1	16	-0.7	6594
Cn1c(SCc2nnc(-c3ccccc3Br)o2)nc2sc3c(c2c1=O)CCC3	-5	-13	-1	5	6	11	8405
CCOC(=O)C1CCN(C(=O)COc2ccc3c(c2)OCO3)CC1	-3	11	0	1	-8	4.5	3724
CCN1CCN(Cc2ccc(NC(=O)c3cc(NC(=O)c4cc5cccc(OC)c5o4)cc(OC)c3)cc2C(F)(F)F)CC1	13	-35	-14	2	18	-7.3	4169&3554
C/C(=N/NC(=O)CNC(=O)c1cccnc1)c1ccccc1	2	nt	-10	nt	nt	nt	3704
CCCCN1CC(C(=O)NC2CCCCC2)CC1=O (configuration not stated)	-17	2	-11	9	1	6.8	2522
Cc1nn(C)c(Oc2cccc(Cl)c2)c1C(=O)O	-8	-3	-5	5	8	5.5	7127
COc1ccc(/C=C(\C#N)C(=O)N=CN(C)C)cc1	3	6	-11	2	-4	4.4	2549
COc1ccc(S(=O)(=O)N(C)CC(=O)NC2CCCCC2)cc1OC	0	4	-12	12	-5	5.3	9458
O=C(COc1ccc(Cl)cc1Cl)NCCC1=CCCCC1	-2	-14	2	11	10	6.1	4095
O=C(CC1SC(=Nc2cccc3ccccc23)N(Cc2ccccn2)C1=O)Nc1ccccc1Br (configuration not stated)	1	-10	-9	11	12	1.1	2013
O=C(COc1ccc(Cl)cc1Cl)NN1C(=O)C2C3C=CC(C3)C2C1=O (configuration not stated)	-2	12	2	5	3	7.5	5773
COc1ccc(OC)c(NC(=O)CSc2nnc(Cn3nnc4ccccc43)n2C)c1	-4	-5	-31	4	7	1.1	3651
COc1ccc(C2COC(=O)C2=N)c(NC(=O)c2ccccc2)c1 (configuration not stated)	16	nt	-15	nt	nt	nt	2185
O=S(=O)(NC(=S)NC1CCCCC1)c1ccc(Cl)cc1	1	8	-33	11	11	3.7	4525
O=C(CSc1n[nH]c(-c2ccccc2)n1)Nc1ncccn1	7	-5	-15	13	-1	4.2	2417
CC(C)(C)C(=O)Nc1ccc(-c2cn3cccnc3n2)cc1	1	7	-40	0	4	2.5	3728
CCc1nccn1S(=O)(=O)c1cccc([N+](=O)[O-])c1	12	5	17	2	7	5.4	2712
COc1cnc(-c2ccccn2)nc1Sc1cccc(Cl)c1	-2	5	-2	11	32	5.0	17458*
COc1ccc(OC)c2[nH]c(=O)c(CCNC(=O)COc3ccccc3)cc12	3	2	57*	nt	nt	-3.5	2689
COc1ccccc1NC(=O)C/C(C)=N/NC(=O)COc1c(Br)cc(Br)cc1OC	6	nt	-14	nt	nt	nt	3454
COc1ccc(-c2nc(-c3ccccc3)no2)c(OC)c1	7	4	67*	-2	1	-2.8	6462
COc1ccc(-c2cc(C(F)(F)F)nc(SCCC(=O)NCc3ccco3)n2)cc1	6	12	nt	9	14	-0.8	nt
Cc1nc(/C(N)=N/OC(=O)c2c(-c3ccccc3Cl)noc2C)cs1	-4	nt	-18	nt	nt	nt	3357
CCN(CC(=O)Nc1ccc(OC)cc1)C(=O)c1oc2c(Cl)cccc2c1C	-2	8	-9	12	0	0.0	?

Another view of part of the listing above.
> COc1ccc(/C=C(\C#N)C(=O)N=CN(C)C)cc1
  BJeLR viability: 3 | ugtP null kill: 6 | PrP 5UTR inh: -11 | Mtb hypoxia inh: 2 | Mtb hypoxia inh growth: -4 | Sa RN4220 lethal: 4.4 | Bead autofluor: 2549
> COc1ccc(S(=O)(=O)N(C)CC(=O)NC2CCCCC2)cc1OC
  BJeLR viability: 0 | ugtP null kill: 4 | PrP 5UTR inh: -12 | Mtb hypoxia inh: 12 | Mtb hypoxia inh growth: -5 | Sa RN4220 lethal: 5.3 | Bead autofluor: 9458
> O=C(COc1ccc(Cl)cc1Cl)NCCC1=CCCCC1
  BJeLR viability: -2 | ugtP null kill: -14 | PrP 5UTR inh: 2 | Mtb hypoxia inh: 11 | Mtb hypoxia inh growth: 10 | Sa RN4220 lethal: 6.1 | Bead autofluor: 4095
> O=C(CC1SC(=Nc2cccc3ccccc23)N(Cc2ccccn2)C1=O)Nc1ccccc1Br (configuration not stated)
  BJeLR viability: 1 | ugtP null kill: -10 | PrP 5UTR inh: -9 | Mtb hypoxia inh: 11 | Mtb hypoxia inh growth: 12 | Sa RN4220 lethal: 1.1 | Bead autofluor: 2013

(listing goes on)
SMILES	BJeLR viability	ugtP null kill	PrP 5UTR inh	Mtb hypoxia inh	Mtb hypoxia inh growth	Sa RN4220 lethal	Bead autofluor
Cc1onc(-c2c(F)cccc2Cl)c1C(=O)ONC(=O)c1ccccc1	8	9	-62	11	11	2.1	4349
CCCCn1c(SCC(=O)N2CCC(C)CC2)nc2ccsc2c1=O	9	11	-3	12	5	4.1	15817
CS(=O)(=O)N1N=C(c2ccco2)CC1c1ccccc1 (configuration not stated)	-11	3	-14	8	-1	2.3	9191
O=C(O)C1C2C=CC3(CN(Cc4ccncc4)C(=O)C13)O2 (configuration not stated)	-2	8	10	-2	-6	4.1	3123
COc1cccc(OCCNc2cc(N3CCCCC3)ccc2[N+](=O)[O-])c1	-9	-13	-12	2	6	-3.7	3025
COCCn1c(SCC(=O)Nc2ccccc2)nnc1-c1ccoc1C	5	5	-17	0	0	4.6	3920
CC(=O)Nc1ccc(S(=O)(=O)N2CCN(c3ncccn3)CC2)cc1	4	9	-20	-1	13	5.0	4102
O=C(O)c1ccc(Cl)cc1NC(=O)C1CCCO1 (configuration not stated)	-2	-4	-22	10	10	8.6	9702
COc1ccc(-c2ccc(C3C4C=CCC(C)C4C(=O)N3Cc3ccccc3)c(F)c2)cc1 (configuration not stated)	nt	-6	nt	12	9	6.5	nt
COc1ccccc1-c1cc(C(F)(F)F)nc(S(=O)(=O)CCCC(=O)Nc2cc(C)on2)n1	-5	10	-21	nt	nt	-2.8	nt
COc1ccc(S(=O)(=O)N2CCN(S(=O)(=O)c3ccc4c(c3)OCCO4)CC2)cc1	-6	-4	-18	6	10	4.5	3526
O=C1CN=C(c2ccc(Br)cc2)c2oc3ccccc3c2N1	3	-2	2	nt	nt	-0.8	3479
Cn1cccc1P(=O)(c1cccn1C)c1cccn1C	13	2	-22	0	7	4.6	12561
COc1ccc(N2CCN(S(=O)(=O)c3ccc4c(c3)NC(=O)CC(=O)N4)CC2)cc1	9	1	-6	-10	-9	1.5	6029
[O-]/[N+](=C\c1ccncc1)c1ccccc1	-5	-2	-18	nt	nt	2.8	2663
COc1ccc(Cn2c(SC)nc3ccccc32)cc1[N+](=O)[O-]	-3	4	-40	3	2	3.1	12012
CC1CN(C(C)CO)C(=O)c2cc(NS(=O)(=O)c3ccccc3)ccc2OC1CN(C)S(=O)(=O)c1ccc(F)cc1 (configuration not stated)	nt	15	nt	4	0	6.1	nt
O=C(NNC(=O)c1cc2cc(Br)ccc2oc1=O)c1ccc(O)cc1O	-1	-26	-18	4	-6	12	2534
CC(Oc1ccccc1[N+](=O)[O-])C(=O)N/N=C/c1ccoc1 (configuration not stated)	1	nt	-7	nt	nt	nt	4259
Cc1cc(C)n(-c2nc(NC(C)(C)C)nc(NC(C)(C)C)n2)n1	-2	0	-25	nt	nt	8.1	2851
COc1cc(/C=N/NS(=O)(=O)c2ccc(C)cc2)ccc1OCc1cccc(C(=O)O)c1	-5	nt	44	nt	nt	nt	4590
Cc1cc(C)cc(-n2nnnc2SCC(=O)N2CCOCC2)c1	0	8	-2	nt	nt	1.8	3808
COc1ccc(C(=O)Nc2ccnn2C2CCN(C(=O)c3cc(C)on3)CC2)cc1	3	0	-5	1	4	0.8	7160
CN(C(=O)CSc1nc2ccccc2c(=O)n1-c1ccc(F)cc1)C1CCS(=O)(=O)C1 (configuration not stated)	nt	5	-4	11	0	4.0	8204
COc1ccc(/C=N\NC(=O)COc2ccc(Cl)cc2Cl)c(C(=O)O)c1OC	-3	nt	-14	nt	nt	nt	7763
